VACV Venus inh: vaccinia inhibition (Venus reporter); hit rate 0.46% among 330,000; AID 720580; Vaccinia virus Venus reporter expression, fluorescence; Potency, µM (highest dose often 36.5 µM), for the others: top-dose activity change, negative = inhibition, most hits filed as inhibitors; active means well fitted inhibition curve with a large enough effect; inconclusive means small, poorly fitted or top-dose-only effect; inactive means no such curve, though single readings can be large or run the other way; tested in A549 cells; also: nearly all actives have a fitted effect of over 30% in size; inactives centre near -10
Vaccinia mCherry: inhibitors of vaccinia virus infection (mCherry reporter signal); Vaccinia virus mCherry reporter infection, fluorescence; about a quarter of the inactives have no number; Potency, µM (highest dose often 36.5 µM), inactives show at the top dose activity change, negative = inhibition, usual class: inhibitors; hit rate 0.63% among 310,000; active = well fitted inhibition curve with a large enough effect; inconclusive = small, poorly fitted or top-dose-only effect; inactive = no such curve, though single readings can be large or run the other way; tested in A549 cells; also: nearly all actives have a fitted effect of over 35% in size; inactives centre near -10
The depositor's hits bear a star; i = inactive; ? = inconclusive; . = no result given; & = joins results of further samples. % is scaled to controls: 0 for no effect and ±100 for the full control effect; potency is read from the fitted curve at half-maximal effect. Compounds as they come. Share with any hit: about 0.82%.

SMILES	VACV Venus inh	Vaccinia mCherry
COc1ccc(CNC(=O)Cc2c(C)c3cc4c(C)coc4cc3oc2=O)cc1	-8%	-2%
O=C(O)C(C(O)c1ccccc1)[n+]1ccccc1 (centres undefined)	-2%	-15%
Cc1cccc(-c2noc(CSc3nc(-c4ccc(F)cc4)cc(=O)[nH]3)n2)c1	-12%	-23%
CCC(C)(C)NC(=O)C(c1ccc(C)cc1)N(CC1CCCO1)C(=O)CCC(=O)Nc1ccccn1 (centres undefined)	-9%	-4%
OC[C@@H]1CN(Cc2ccc(Cl)cc2)C[C@H](n2cnc3c(NC4CCCC4)ncnc32)O1	-8%	-18%
COC(=O)C1=C(C(=O)OC)[C@@H]2N(Cc3ccccc3)c3ccccc3[C@@]23C[C@@H](C(=O)OC)N(C(=O)COCc2ccccc2)C3=N1	?	-5%
CC(=O)N1CSCC1C(=O)NNS(=O)(=O)c1cccc(C(F)(F)F)c1 (centres undefined)	-14%	-9%
Cc1ccc(NC(=O)Nc2ccc3snnc3c2)cc1C	-2%	0%
Cc1ccc(C)c(S(=O)(=O)NCC(=O)NCc2ccco2)c1	-25%	?
COc1cc2ccc(CC(N)=O)cc2cc1OC	-13%	i
CCC(=O)N(Cc1cc2cc(OC)ccc2[nH]c1=O)c1ccccc1OC	-22%	i
COC(=O)c1cc(C(O)(C(=O)OC)C(F)(F)F)c(/N=C/N(C)C)s1 (centres undefined)	-12%	-18%
Cn1c(=NN=Cc2ccccc2OCCO)sc2ccccc21	?	-26%
Cc1cc(=O)oc2cc(OC(C)C(=O)NC3CCCC3)ccc12 (centres undefined)	-10%	-12%
CC(=O)NCC(N)C(=O)c1ccc(C)cc1 (centres undefined)	-20%	?

An excerpt taken from the entries so far, as a working copy:
SMILES	VACV Venus inh	Vaccinia mCherry
COC(=O)c1cc(C(O)(C(=O)OC)C(F)(F)F)c(/N=C/N(C)C)s1 (centres undefined)	-12%	-18%
Cn1c(=NN=Cc2ccccc2OCCO)sc2ccccc21	?	-26%
Cc1cc(=O)oc2cc(OC(C)C(=O)NC3CCCC3)ccc12 (centres undefined)	-10%	-12%
CC(=O)NCC(N)C(=O)c1ccc(C)cc1 (centres undefined)	-20%	?

(continued)
SMILES	VACV Venus inh	Vaccinia mCherry
CCC(=O)Nc1nonc1-c1nc2ccccc2n1Cc1ccc(Cl)c(Cl)c1	3%	i
C[C@@H]1CN([C@H](C)CO)C(=O)CCCn2nncc2CO[C@H]1CN(C)S(=O)(=O)c1ccccc1	-9%	-4%
Cn1c(=O)c2sccc2n2c(CCC(=O)NCc3ccccc3Cl)nnc12	-2%	8%
CCOC(=O)N/N=C(\c1ccccc1)C(O)c1ccccc1 (centres undefined)	-3%	-17%
Cc1nc2ccc(NC(=O)c3cc(S(=O)(=O)N4CCOCC4)ccc3C)cc2s1	?	.
C[C@H](NC(=O)c1nc[nH]c1C(=O)N1CCc2ccccc2C1)c1ccccc1	-23%	?
Cn1c(=O)c2c(-c3ccccc3Br)n(CCc3ccccc3)cc2n(C)c1=O	-8%	-9%
O=C(CCCOC(=O)c1ccc(O)cc1)c1ccccc1	-11%	-26%
CCOC(=O)N1CCN(c2c(NCCCN(C)c3ccccc3)c(=O)c2=O)CC1	0%	-29%
CC(Sc1nc(-c2ccccc2)cc(C(F)(F)F)n1)C(=O)N1CCCC1 (centres undefined)	-5%	0%
N=c1n(CCOc2ccccc2)c2ccccc2n1CCN1CCOCC1	-14%	.
COc1ccc(C(=O)NC(=S)SCC(=O)O)cc1	-24%	-18%
CN1CCN(C2=Cc3ccccc3Sc3cc(F)c(F)cc32)CC1	-19%	?
CCOc1ccc(NS(=O)(=O)c2cc(Cl)ccc2OC)cc1	-12%	.
Cc1ccccc1NC(=S)N(CCN(C)C)C(C)c1cccnc1 (centres undefined)	-7%	0%
O=C(NCCCN1CCOCC1)C1CCC(=O)N1CCc1ccccc1 (centres undefined)	-15%	i
NC(=O)c1cccc2cc3ccccc3cc12	-4%	1%
C[C@H]1CN([C@@H](C)CO)C(=O)c2cccc(NC(=O)c3cnccn3)c2O[C@@H]1CN(C)C(=O)Nc1ccc2c(c1)OCO2	-4%	-23%
CCOCCOC(=O)c1[nH]c2c(c1C)C(=O)CC(c1cccs1)C2 (centres undefined)	?	-7%
O=C(CN1C(=O)CCn2nc(-c3ccccc3)cc21)NCc1ccc(F)cc1	-6%	-1%
COc1ccc(C(=O)N2CCN(CCc3ccccn3)CC2)cc1	-2%	-6%
COc1ccc(S(=O)(=O)N2CCN(C3CCCCCCC3)CC2)cc1	-21%&-4%	-3%
CN1CCN(CC#CC2(O)CCCCC2)CC1	-12%	i
CSc1ncc2c(n1)-c1ccccc1N(Cc1ccc(F)cc1)S2(=O)=O	11%	7%
CCN1CCN(C(=S)NC(=O)c2cc(OC)c(OC)c(OC)c2)CC1	-1%	-11%
CCC(C)(NC(=O)Cc1c[nH]c2ccccc12)C(=O)NC1CCCCC1 (centres undefined)	-7%	-18%
Cc1cc([N+](=O)[O-])nn1CC(=O)NCc1cccs1	-27%	.
COc1cccc(CNc2ccc3nc(-c4ccc(N)cc4)c(OC)n3n2)c1	-8%	i
CCOC(=O)C1=C(C)NC2(O)c3ccccc3C(=O)C12O (centres undefined)	-2%	-7%
CC(c1nnnn1C1CCCCC1)N(Cc1ccccc1)Cc1cccnc1 (centres undefined)	-15%	.
CN(C(=S)Nc1ccc(Oc2ccccc2)cc1)c1ccc(O)cc1	-15%	-2%
O=C(/C=C/c1ccccc1)N/C(=C\c1ccco1)C(=O)O	-9%	-14%
CC(=O)c1cc(C(=O)Nc2ccc3ccccc3c2)c(C)o1	-8%	?
CC(=O)C1C(c2ccc3ncccc3c2)NC(=O)NC1(O)C(F)(F)F (centres undefined)	-10%	-9%
Cc1ccc(C(=O)N2CCN(C3c4cccc5cccc(c45)C3NS(=O)(=O)c3ccccc3)CC2)cc1 (centres undefined)	-29%	.
C=CCNC(=O)c1ccc(-c2ccc([N+](=O)[O-])cc2)o1	-9%	-15%
Cc1ccc(-c2csc(=Nc3ccccc3)n2Cc2ccc3c(c2)OCO3)cc1C	5%	-8%
C#Cc1cccc(NC(=O)c2ccc3c(c2)C(=O)N(Cc2cccnc2)C3=O)c1	-6%	-14%
CC1(C)CN=c2s/c(=C\c3ccc(Cl)cc3)c(=O)n2C1	?	10µM*
Cc1noc(C)c1NC(=O)N(C)C[C@@H]1OCc2cnnn2CCCC(=O)N([C@H](C)CO)C[C@@H]1C	-8%	i
CC1=C(C(=O)N(C)C)CC(CC(=O)NC2CCCCC2)C(=O)N1Cc1ccc(F)cc1 (centres undefined)	8%	2%
Cc1cc(/C=C2\SC(=S)NC2=O)c(C)n1-c1ccc(O)cc1	-2%	?
CCOc1ccc(NC(=O)CC2C(=O)N(c3ccccc3)C(=O)N2C2CCCCC2)cc1 (centres undefined)	-4%	-7%
O=C(CN1C(=O)NC2(CCCCCC2)C1=O)Nc1ccccc1[N+](=O)[O-]	-9%	-9%
Cc1cc(C)cc(NC(=S)NC(=O)Cc2ccccc2)c1	-12%	-18%
COC(=O)c1ccccc1NC(=O)Cn1c(=O)cc(-c2ccccc2)c2c(C)nn(C)c21	-18%	-22%
CCOC(=O)c1c(N=CN(C)C)c2cc([N+](=O)[O-])cnc2n1C	-25%	-8%
Cc1cc(C)c2c(C)nn(-c3ccccc3)c2n1	-10%	-11%
Cc1cc(NC(=O)CSc2nc3c([nH]c4ccccc43)c(=O)n2-c2ccc(Cl)cc2)no1	?	?
COC(=O)CCC(=O)NC(=S)Nc1sc(C)c(C)c1C(N)=O	-19%	?
CCCOC(=O)c1ccc(NC(=O)/C=C/c2cccs2)cc1	-4%	i
COc1ccccc1N(CC1CO1)S(=O)(=O)c1ccccc1 (centres undefined)	-8%	-10%
O=C(Cn1cnc2c(nnn2Cc2ccccc2F)c1=O)OCc1ccccc1	-14%	-9%
CCN(CC)CCNC(=O)c1cc(-c2ccco2)nc2ccccc12	2%	-16%
COc1ccc(S(=O)(=O)CC2(O)CCN(C(=O)C(C)(C)C)CC2)cc1	-8%	3%
CCc1nc(NCc2cccs2)c2nnn(Cc3ccccc3)c2n1	-16%	-7%
O=C(c1cccc(Br)c1)c1cn(-c2ccccc2)nc1C(=O)c1ccccc1	-2%	-11%
CC(=O)Nc1ccc(S(=O)(=O)N[C@@H](C)C(=O)OCc2ccc(Cl)cc2)cc1	-8%	i
O=C(c1ccc(N2CCOCC2)cc1[N+](=O)[O-])N1CCOCC1	4%	-11%
O=C(NC(=S)Nc1ccc(N2CCOCC2)cc1)c1ccccc1	-10%	-25%

Next section:
SMILES	VACV Venus inh	Vaccinia mCherry
N#Cc1nc(N2CCCCC2)nc(N(c2ccccc2)c2ccccc2)n1	-12%	1%
COc1ccc(C(OC(=O)c2ccco2)C(=O)NC(C)(C)C)cc1 (centres undefined)	-5%	-2%
Cc1ccc(S(=O)(=O)N/N=C/c2cc([N+](=O)[O-])ccc2O)cc1[N+](=O)[O-]	-8%	-6%
O=C(COC(=O)CCCN=C1NS(=O)(=O)c2ccccc21)NC(=O)NC1CCCC1	-28%	-7%
CCC(=O)c1ccc(CCCCCC(=O)O)s1	10%	-2%
Cc1ccc2nc(-c3cccc(Cl)c3)c(Cc3cccc(F)c3)n2c1	-9%	-12%
Cc1cc(OCc2cn3cccnc3n2)ccc1Cl	-17%	-26%
O=c1[nH]c2cccnc2n1Cc1ccccc1	-13%	.
CC1(C)C2CCC1(C)C(OC(=O)c1ccc(O)cc1)C2 (centres undefined)	-14%	-11%
Cc1cc([N+](=O)[O-])nn1CC(=O)N1CCCc2ccccc21	-6%	i
COc1ccc(-c2cc(C(F)(F)F)n3nc(C(=O)N4CCOCC4)c(Cl)c3n2)cc1	-23%	.
CN(CCn1ccnc1)Cc1cn(-c2ccccc2)nc1-c1ccc2c(c1)OCO2	-6%	i
COC(=O)[C@]12CCCCC=C1N(Cc1ccco1)C(=O)[C@H](CC(=O)N1CCN(C(=O)C3CC3)CC1)C2	-2%	13%
Brc1ccc(C2=CC(c3ccco3)n3ncnc3N2)cc1 (centres undefined)	-1%	-16%
CCOc1ccc(CCNC(=O)CCc2nc(-c3ccc(C)cc3)no2)cc1OCC	-6%	.
CC(C)NC(=O)c1ccc2sc([C@@H]3O[C@H](CO)[C@H](O)[C@H](O)[C@H]3O)nc2c1	12%	26%
CN(C)S(=O)(=O)c1ccc(NC(=O)CNc2cc(S(=O)(=O)N3CCCC3)ccc2OCC(F)(F)F)cc1	-18%	i
O=C(CN1CCN(Cc2ccccc2)CC1)Nc1ccc(S(=O)(=O)N2CCOCC2)cc1	-3%	i
Cc1nn(C)c2c1c(C(F)(F)F)cc(=O)n2CC(=O)N1CCC(C)CC1	1%	12%
CC1(C)CC(NC(=O)CSc2ccccc2)CC(C)(C)N1	-14%	i
CCC1CCCCN1C(=S)NCc1ccccc1 (centres undefined)	-4%	-20%
O=Cc1cn[nH]c1-c1cccc([N+](=O)[O-])c1	-15%	-18%
COc1ccc(S(=O)(=O)CCC(=O)NC2CCCCC2)cc1	-13%	-21%
COc1ccc(S(=O)(=O)/C(C#N)=C/Nc2cccc(OC)c2)cc1	-11%	-7%
CC(C)(C(=O)N1CCC1(C)C(=O)NS(=O)(=O)c1ccc(Cl)s1)c1ccccc1 (centres undefined)	-19%	9%
CC(Oc1ccc(Cl)cc1Cl)C(=O)Nc1ccc(N2CCN(C)CC2)cc1 (centres undefined)	-11%	-12%
COc1ccc([C@H](C)NC[C@H](O)c2ccc(O)c(NC=O)c2)cc1	2%	-12%
O=C(c1ccc(S(=O)(=O)N2CCCCC2)cc1)N(c1ccccn1)C1CCCCC1	-6%	-2%
Cc1ccc(Cn2c(C(=O)O)c(CNC3CCCCCC3)c3ccc(C)cc32)cc1	-4%	-1%
O=C(COc1ccc(S(=O)(=O)Nc2ccccc2)cc1)N1CCOCC1	-6%	.

Sorted by SMILES length (rising): part of the list above
SMILES	VACV Venus inh	Vaccinia mCherry
CCOC(=O)C1=C(C)NC2(O)c3ccccc3C(=O)C12O (centres undefined)	-2%	-7%
O=C(/C=C/c1ccccc1)N/C(=C\c1ccco1)C(=O)O	-9%	-14%
COc1ccc([C@H](C)NC[C@H](O)c2ccc(O)c(NC=O)c2)cc1	2%	-12%

6 entries picked at random from those above:
SMILES	VACV Venus inh	Vaccinia mCherry
CC(C)NC(=O)c1ccc2sc([C@@H]3O[C@H](CO)[C@H](O)[C@H](O)[C@H]3O)nc2c1	12%	26%
CC1(C)CC(NC(=O)CSc2ccccc2)CC(C)(C)N1	-14%	i
O=C(c1ccc(S(=O)(=O)N2CCCCC2)cc1)N(c1ccccn1)C1CCCCC1	-6%	-2%
Cc1ccc(Cn2c(C(=O)O)c(CNC3CCCCCC3)c3ccc(C)cc32)cc1	-4%	-1%
COc1ccc([C@H](C)NC[C@H](O)c2ccc(O)c(NC=O)c2)cc1	2%	-12%
CCC1CCCCN1C(=S)NCc1ccccc1 (centres undefined)	-4%	-20%

(further entries)
SMILES	VACV Venus inh	Vaccinia mCherry
O=C1NC(CC(=O)N2CCC(n3c(C4CCC4)nc4cccnc43)CC2)c2ccccc21 (centres undefined)	7%	-11%
Nc1cccc2c1C(=O)N(C(=O)/C=C/c1cccc(Br)c1)C2=O	0%	-4%
CCc1ccc(S(=O)(=O)n2c(C)nc3ccccc32)cc1	-11%	-17%
CO/N=C(/CS(=O)Cc1ccccc1Cl)c1ccc(Cl)cc1Cl (centres undefined)	-4%	-4%
COc1ccccc1C(=O)NNC(=O)Cc1ccccc1	-2%	-9%
CCCCC1OC23CCCCC2C(C#N)(C(=N)O3)C1(C#N)C#N (centres undefined)	-15%	.
CN1CCN(c2ccc(CNC(=O)C3(C)Cc4c(-c5ccc(C(N)=O)cc5)ccnc4O3)cc2)CC1 (centres undefined)	-3%	3%
COc1ccc(-c2nc3ccc(NC(=O)COC(C)=O)cc3c(=O)n2Cc2ccccc2)cc1COc1ccc(NC(C)=O)cc1	-11%	i

Source: PubChem (National Center for Advancing Translational Sciences (NCATS))
